MT1-MMP act inh = inhibitors of human MT1-MMP activation; P50281; HT1080 RFP-PRO-GFP cells, GFP/RFP ratio fluorescence, overnight; percent of plate control window, DMSO zero; GFP/RFP ratio change, % at 20 µM; 360,000 tested, 0.061% active; AID 651647;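 active = GFP/RFP ratio change of at least 30% with cell ATP level not reduced by more than half and red fluorescence within 50% of control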; note: strong numbers were not always called active
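Assay system: HT1080 RFP-PRO-GFP cells. Benchmarks: DMSO vehicle wells and RFP-L50D-GFP reporter cell wells. Times: overnight cell settling, then overnight compound exposure, 37 °C, 5% CO2. Compound: 20 µM single dose, 1% DMSO. Read-out basis: GFP/RFP fluorescence ratio.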
eIF4H inh = inhibitors of RNA binding by human eIF4H; Q15056; eIF4H fluorescence polarization binding assay; inhibition, % at 35 µM; 290,000 tested, 0.94% active; AID 2012;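 active = 50% or more with normal probe brightness, or confirmed in later tests; inconclusive = above 50% with abnormal brightness, or retests that disagree; inactive = below 50% or failed in later tests; about a fifth of its hits are not listed in these tables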;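 note: calls also rest on retests at 20 µM and on dose response follow-up; 0% = protein and probe with vehicle and 100% = probe without protein; strong numbers were not always called active; many hits fall short of the cut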
CSC inhib = cancer stem cell inhibition; cancer stem cell-like cells viability, luminescence; inhibition, % at 7.5 µM; 300,000 tested, 1.1% active; AID 2717;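 active = mean at 75% or more and at least half the replicates too; inconclusive = mean and replicates disagree; tested in HMLE shEcad cells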;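 note: 0% = median of negative and 100% = median of positive control wells; the first replicate is given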
HIV Env fusion = blocks HIV Env-driven cell-cell fusion; HeLa-JRFL Env/CEM21 cell fusion, luciferase; inhibition, % at 12.3 µM; 360,000 tested, 1.1% active;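 active = mean replicate inhibition score of at least 50 and every replicate individually at or above 50; inconclusive = only one of the two criteria met; inactive = mean below 50 and not all replicates reaching 50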;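 note: 0% = plate neutral controls and 100% = maraviroc near 300 nM; one replicate is shown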
UUG fidelity = alters start codon recognition fidelity in yeast | 350,000 tested, 0.13% active | S. cerevisiae UUG-firefly luciferase reporter, luminescence/redox ratio | activity score, % at 18.7 µM;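 active = replicate mean at a twofold rise or more, about +100% in these data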;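 note: firefly luciferase made from a UUG start codon reports start codon fidelity; reporter light over untreated wells divided by growth signal over untreated wells; some hits fall short of that in this replicate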
PABP FP inh = PABP-poly(A) binding inhibition. inhibition, % at 35 µM. AID 2014. PABP-poly(A) RNA binding, fluorescence polarization. 290,000 tested, 1% active;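 active = 50% or more with normal probe brightness, or confirmed in later tests; inconclusive = above 50% with abnormal brightness, or retests that disagree; inactive = below 50% or failed in later tests; about a fifth of its hits are not listed in these tables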;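 note: calls also rest on retests at 20 µM and on dose response follow-up; controls were probe without protein and protein plus probe with vehicle; some compounds called inactive have numbers as strong as hits; many hits fall short of the cut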
Target sequence (P11940 whole entry, looked up): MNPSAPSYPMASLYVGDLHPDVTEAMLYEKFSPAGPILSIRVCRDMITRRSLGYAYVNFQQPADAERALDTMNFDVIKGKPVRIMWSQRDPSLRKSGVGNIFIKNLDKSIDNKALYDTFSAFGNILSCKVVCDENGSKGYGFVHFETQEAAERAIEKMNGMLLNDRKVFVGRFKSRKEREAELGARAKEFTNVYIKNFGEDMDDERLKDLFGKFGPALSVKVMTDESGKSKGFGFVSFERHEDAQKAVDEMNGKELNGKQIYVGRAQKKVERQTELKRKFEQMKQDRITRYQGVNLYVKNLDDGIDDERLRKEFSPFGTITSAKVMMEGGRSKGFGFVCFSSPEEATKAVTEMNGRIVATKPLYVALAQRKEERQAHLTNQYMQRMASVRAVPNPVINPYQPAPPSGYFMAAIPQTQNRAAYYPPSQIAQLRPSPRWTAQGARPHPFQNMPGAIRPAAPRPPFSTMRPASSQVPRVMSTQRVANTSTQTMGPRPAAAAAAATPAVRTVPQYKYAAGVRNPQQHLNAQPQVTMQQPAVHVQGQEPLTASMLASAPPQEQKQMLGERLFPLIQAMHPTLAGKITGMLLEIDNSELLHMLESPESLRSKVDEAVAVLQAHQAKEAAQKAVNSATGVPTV
Rce1 inhib = inhibitors of yeast Ras-converting enzyme; yeast membranes, quenched prenylated peptide cleavage fluorescence; AID 2563; Q03530; calls only; 290,000 tested, 0.27% active;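 active = fall in fluorescence gain of 50% or more versus controls, with final raw signal at or below 3038400; inconclusive = same 50% fall but final raw signal above 3038400; inactive = fall in fluorescence gain under 50%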;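 note: plate controls were neutral control wells for no effect and wells lacking membranes for full effect; tested at 10 µM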
MT1-MMP act inh RFP = also measured in MT1-MMP act inh; calls as there; RFP signal change, %; measured here: RFP expression control read;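 0 = vehicle wells; hits needed this value within 50% of zero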
An asterisk follows results filed as active; i = inactive; ? = inconclusive; . = no result given; + = active, no number.

Order of values – MT1-MMP act inh, MT1-MMP act inh RFP, eIF4H inh, CSC inhib, HIV Env fusion, UUG fidelity, PABP FP inh, Rce1 inhib
- O=C(Nc1ccccc1C(=O)N1CCN(c2ccccc2)CC1)c1ccco1
  0, 2, 8, -8, -36, -13, 6, i
- O=C(CSc1nnc(-c2ccccn2)n1Cc1ccccc1)Nc1ccc2c(c1)OCO2
  -7, -10, -1, -2, ., 13, 1, i
- Cc1c(OC(C)C(=O)NCCCN2CCOCC2)ccc2c1oc(=O)c1ccccc12 (centres undefined)
  4, 0, -10, 1, ?, 6, -1, i
- Cc1cc2nc(-c3ccc(SCc4ccccn4)nc3)[nH]c2cc1C
  -3, -18, 6, 21, -6, -16, -6, i
- CCn1cc([N+](=O)[O-])c(C(=O)N2CCN(C(=O)c3ccco3)CC2)n1
  2, 4, -9, 0, 7, -7, 4, i
- CN(/C=C/C(=O)C(F)(F)F)Cc1ccccc1
  -4, -3, 14, -14, 7, -2, 9, i
- O=C(NCCN1CCOCC1)c1cccc(S(=O)(=O)NCc2ccccc2)c1
  3, 2, ., -3, -1, 4, ., i
- COC(=O)N(NC(=O)C(O)(c1ccccc1)c1ccccc1)c1ccc(C)cc1
  0, 1, -1, -5, -53, ., 10, i
- O=C(Cc1c[nH]c2ccccc12)NC1(C(=O)NC2CCCC2)CCCCC1
  -5, -1, -3, -2, 10, -6, 2, i
- CC(C)CC(OC(=O)c1nsc(Cl)c1Cl)C(=O)NCC1CCCO1 (centres undefined)
  5, 9, 6, -3, 9, 0, 7, i
- COc1cccc(-c2nc(CS(=O)(=O)CC(=O)NC3CCCC3)c(C)o2)c1
  0, -4, 1, -5, 4, -10, -6, i
- NC1=C(c2ccccc2)C(=O)NC1=O
  1, -1, 9, -12, 6, -11, 13, i
- O=c1ccc(-c2ccc(S(=O)(=O)N3CCN(c4cccc(Cl)c4)CC3)o2)n[nH]1
  0, 4, -12, 9, -4, -6, -7, i
- O=C(Nc1ccon1)c1sc2cc(F)ccc2c1Cl
  2, 1, 6, 0, ., 1, 5, .
- NC(=S)N/N=C/c1coc2c(ccc3ccccc32)c1=O
  0, 6, -1, -3, -214, -13, -4, i
- COc1ccc(S(=O)(=O)NCCc2nnc3ccc(SCC(=O)Nc4nc(C)cs4)nn23)cc1
  4, 6, -4, 16, -7, ., 2, i
- CCOC(=O)c1sc(NC(=O)c2ccco2)nc1-c1ccccc1
  -4, -4, 0, -13, -13, -18, 49, i
- COc1cccc(CNC(=O)C2CCCN(S(=O)(=O)c3cnc[nH]3)C2)c1 (centres undefined)
  -6, 3, 1, -11, -13, -15, -10, i
- C/C=N/NC(=O)c1cc(Br)ccc1O
  3, 3, 6, ., ., ., -3, i
- CCOC(=O)N1CCC(NC(=O)c2cc(S(=O)(=O)N3CCC4(CC3)OCCO4)ccc2F)CC1
  -6, -11, 9, 0, 15, 8, 9, i
- O=C(CCNC(=O)c1ccccc1)NNC(=O)c1ccc(F)cc1
  -1, -1, ., -7, ., -12, ., .
- Cc1ccc(S(=O)(=O)NCC(=O)N2CCCC2)cc1
  3, 3, -5, -6, ., -17, 18, i
- COc1ccc(/C=N/NC(=O)c2cccc(O)c2)cc1Cn1nc(C)c([N+](=O)[O-])c1C
  -1, -9, -14, 35, -21, ., 2, i
- CC1(NC(=O)Nc2cccc(Br)c2)CCS(=O)(=O)C1 (centres undefined)
  2, -1, ., 6, 12, -18, ., .
- CCOC(=O)c1oc2cc(O)c(CC)cc2c(=O)c1-c1ccc2c(c1)OCCO2
  0, 0, -5, 13, -1, -16, 0, i
- CC(=O)Nc1cc(-c2ccc(C(=O)N3CCOCC3)cc2)cn2c(-c3ccccc3)cnc12
  -1, 5, ., ., 0, 4, ., .
- CCOc1ccc(C(=O)Nc2cccc(C(=O)O)c2)cc1Cl
  4, 5, -4, 1, 36, ., 4, i
- O=C1[C@@H]2[C@H]3CC[C@H](C3)[C@@H]2C(=O)N1O
  2, 4, 13, 9, 1, -1, 8, i
- C/C(=N\NC(=O)c1cccc(S(=O)(=O)N2CCCC2)c1)c1ccccc1F
  -2, 0, ., -15, ., ., ., i
- COc1cccc([C@@H]2Oc3ccc(OC)cc3C(=O)[C@H]2OC(=O)N[C@H](C)C2CCCCC2)c1
  ., ., 6, -4, ., ., 7, i
- Cc1cc(C(=O)CSc2ncn[nH]2)c(C)n1-c1cccc(S(=O)(=O)N2CCOCC2)c1
  -2, -3, 8, -10, ., ., 1, i
- Cc1ccccc1NC(=S)N1CCN(c2ccccc2Cl)CC1
  -2, 0, 3, -10, -5, -11, 9, i
- CC(=O)Nc1ccc(C(=O)CN2C(=O)NC3(CCCCCC3)C2=O)c(F)c1
  -1, 0, ., -18, -51, -11, ., .
- COCCNC(=O)CCn1nc(-c2ccc(Cl)cc2)c2ccccc2c1=O
  -2, -2, -4, -3, ., 2, 0, i
- CCOC(=O)C1CCCCN1Cc1cccc(OCc2ccccc2)c1 (centres undefined)
  -1, -4, 18, 12, 7, 0, 0, i
- COC(=O)c1sccc1NC(=O)Nc1cc(C)cc(C)c1
  -2, 0, 10, -23, ., 1, -1, i
- O=C(c1ccccc1F)N1CCN(Cc2cccc(Cl)c2)CC1
  -6, -8, 8, ., 69*, -3, 3, i
- CCOc1cc(C2C(C(=O)OC)=C(C)N=C3SCCC(=O)N32)ccc1OC(C)=O (centres undefined)
  -2, -2, -11, -11, ., -14, -13, i
- CC(=O)Nc1cccc(C)c1
  -2, 5, ., -7, ., -7, ., .
- COCCn1c(-c2ccccc2)nc2oc3cc(OC)ccc3c(=O)c2c1=O
  6, -2, 0, -17, -52, 51, 2, i
- C[n+]1cccc(C(=O)Nc2ccccc2)c1
  -1, 3, -1, 0, -6, -13, 14, i
- CCS(=O)(=O)c1ccc(N)cc1
  1, 2, -1, -9, 0, ., -14, i
- O=C(Nc1cccnc1)Nc1cccc([N+](=O)[O-])c1
  -4, -7, 0, -8, 16, 1, -11, i
- CC(C)CNC(=O)COc1cccc(C(=O)NCc2ccccc2)c1
  9, 2, 7, 10, 8, ., 8, +
- CC(C)CNC(=O)c1ccccc1NC(=O)c1ccc(CN2CCOCC2)cc1
  6, 4, 3, 0, ., -17, -2, i
- COc1ccc(-n2c(COc3ccc(C)cc3)nnc2SCC(=O)O)cc1
  -1, -1, -1, 15, -7, -16, 0, i
- C/C(=N\NC(=O)Cc1ccc(O)cc1)c1cccnc1
  9, 3, 3, -1, 0, 13, -6, i
- CCCCN(CCCNC(=O)Cn1nc(CC)n2c(cc3sc(C)cc32)c1=O)Cc1ccccc1
  0, 1, -16, 8, 4, -4, -11, i
- CCc1nc2ccc(C)cc2c(C(=O)NC2CCCCC2C)c1C (centres undefined)
  -2, 2, -2, -1, -76, -11, -10, i
- O=c1[nH]ncc2c3ccccc3n(Cc3ccccc3)c12
  -5, -5, -5, -13, ., -13, -1, i
- C=CCc1c(C)nn(CC(=O)O)c1-c1ccccc1
  0, 0, -6, 4, ., -18, -4, i
- O=C(NC1CCCCC1)C1CCC(=O)N(Cc2cccc(C(F)(F)F)c2)C1 (centres undefined)
  4, 3, -10, 8, 5, -8, -3, i
- CCc1nnc(NC(=O)CCN2C(=O)CCC2=O)s1
  -48, -51, -5, -9, -20, -20, -6, i
- CCOC(=O)N1CCN(C(=O)COc2ccc(Br)cc2Cl)CC1
  -2, -5, -4, -7, -29, -9, -1, i
- COc1ccc(-n2nc(C(=O)Nc3cc(OC)c(OC)c(OC)c3)c3ccccc3c2=O)c(OC)c1
  2, 1, -7, ., -28, ., 4, i
- CCC(C)(C)NC(=O)C(NS(=O)(=O)c1cccs1)c1ccccc1 (centres undefined)
  -2, 1, -13, 5, 71*, -6, -10, i
- CCOC(=O)C(NC(=O)c1ccccc1)(OCc1ccccc1)C(F)(F)F (centres undefined)
  -2, -1, 0, 10, 1, ., 0, i
- COc1ccc(CNC(=O)CSc2nnnn2C)cc1OC
  0, 1, 5, -6, 0, ., 20, i
- CCCCn1c(N)c(N(CC)C(=O)c2ccc(N(C)S(=O)(=O)c3ccc(C)cc3)cc2)c(=O)[nH]c1=O
  3, 2, ., -7, 4, ., ., i
- CC(OC(=O)c1ccncc1)C(=O)Nc1ccc([N+](=O)[O-])cc1Cl (centres undefined)
  -1, 2, -10, 2, 11, -10, -13, i

(cont.)
Order of values – MT1-MMP act inh, MT1-MMP act inh RFP, eIF4H inh, CSC inhib, HIV Env fusion, UUG fidelity, PABP FP inh, Rce1 inhib
- NC(=O)c1ccc[n+](CC(=O)c2ccc(Cl)c(Cl)c2)c1
  -2, 2, 30, -7, 14, 14, 4, i
- Cc1ccc(S(=O)(=O)N2CCN(C(=O)c3ccccc3OCc3c(C)noc3C)CC2)cc1C
  -5, -4, ., -3, 1, ., ., i
- Cc1ccc2oc(/N=C(\N)NC(=O)C3CC3)nc2c1
  -4, -9, 0, 50, -348, -54, -3, i
- CCOc1ccc(C2/C(=C(\O)c3cccc(OC)c3)C(=O)C(=O)N2c2ccccn2)cc1OC (centres undefined)
  -4, 1, -5, -5, 4, -17, 1, i
- O=C(CCN1CCCCC1)c1ccc2c(c1)OCO2
  2, 3, 8, 19, ., -10, 12, i
- CC(C)CNC(=S)N(CCO)Cc1cc2cc3c(cc2[nH]c1=O)OCO3
  -1, -2, -11, -9, 18, -6, 0, i
- CC1(C(=O)Nc2ccc3ccccc3c2)CCC(=O)N1C1CC1 (centres undefined)
  5, 4, ., ., 0, -16, ., .
- COc1ccc(CN2C[C@@H](CO)O[C@@H](n3cnc4c(NCc5ccc(F)cc5)ncnc43)C2)cc1
  2, -2, ., ., 15, -15, ., .
- C(=C\c1nccc2c1[nH]c1ccccc12)/c1ccccc1
  -6, -8, -8, 70, -37, ., 6, i
- O=C(NCC1CC1)C1Cc2c(-c3ccccc3Oc3ccccc3)ccnc2O1 (centres undefined)
  -1, -3, ., ., 5, -5, ., .
- O=S(=O)(Nc1cc(C(F)(F)F)ccc1N1CCOCC1)c1ccc2ccccc2c1
  -16, -8, -3, 52, ., -8, -8, i
- COc1cccc(/C=N/NC(=O)c2nnn(-c3nonc3N)c2-c2cccs2)c1
  0, -4, -1, 15, -6, 19, 2, i
- COc1ccc(N(CC(=O)NCCSC(C)(C)C)S(C)(=O)=O)c(OC)c1
  1, 0, -2, -11, ., -17, -3, i
- Cc1c(Cl)cccc1NC(=O)COC(=O)CN1C(=O)NC(C)(C)C1=O
  0, 0, 4, -12, 17, -5, 0, i
- COc1cc(NS(C)(=O)=O)c(OC)cc1NC(=O)c1ccccc1
  0, 5, 6, -1, -46, -19, 8, i
- CC1CC(CCC(=O)NC(=S)Nc2ccc(Cl)cn2)C(=O)O1 (centres undefined)
  4, 4, -6, ., -176, ., -2, i
- CCCN(CCC)CCN1C(=O)C2C(C(=O)Nc3cccc(SC)c3)C3C=CC2(O3)C1C(=O)NC1CCCCC1 (centres undefined)
  6, 6, -4, -7, 3, 0, -2, .
- O=C(NCCN1CCOCC1)NC1(C(F)(F)F)Oc2ccccc2O1
  4, -7, -10, 22, 21, ., -8, i
- O=C1C=C(C2CCCCC2)C(=O)c2ccccc21
  -37, 5, ., ., 39, -16, ., .
- CCN(CC)CCn1c2c(c(SCC(=O)Nc3cccc4ccccc34)nc1=O)CCCC2
  3, -2, ., 7, 13, -4, ., i
- c1ccc(-c2nc(NCCCN3CCOCC3)c3ccccc3n2)cc1
  -3, -1, -6, -14, -45, -11, -5, i
- CCC(C)[C@H](NC(=O)[C@@H]1Cc2ccccc2CN1)C(=O)NCc1ccc(OC)cc1 (some centres undefined)
  1, 6, -11, -13, ., -33, -4, i
- Cc1cc(C)c(NC(=O)NC(=O)C(Cl)(Cl)Cl)c(C)c1
  -1, 0, 2, ., 8, 1, 13, i

Source: PubChem
